# Vaccinia stage: Vaccinia orthopox stage-specific inhibition; Vaccinia-infected cells, mCherry/Venus stage reporter fluorescence; active compounds read low; some inactives read as strong as hits; activity change (mCherry), % (concentration not given with the values); hit rate 0.01% among 89,000; AID 1053133;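 active = mCherry past -33% and 40 or more points under the early reporter, replicates agreeing; inconclusive = past -33% without that gap or agreement; tested in A549 cells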;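 note: scaled between vehicle wells and reference inhibitor wells; 23 nL library stock went into each well; one replicate is shown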
# Vaccinia stage Venus: further read-out of Vaccinia stage, marked with its call; activity change (Venus), %; measured here: Venus reporter, other viral stage;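 negative = less Venus signal; first of two replicates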
# Numbers without * were called inactive; ? = inconclusive; . = not tested or not shown; & = joins results of further samples. Some of the compounds tested; rates above refer to the full screens.
(1) C[C@@H]1CN([C@H](C)CO)C(=O)c2cccc(NS(=O)(=O)c3cccs3)c2O[C@@H]1CN(C)C(=O)NC1CCCCC1
(2) Cc1noc(C)c1NC(=O)N(C)C[C@@H]1OCCCC[C@@H](C)Oc2ccc(NC(=O)c3ccncc3)cc2C(=O)N([C@H](C)CO)C[C@@H]1C
(3) CC(=O)N(C)C[C@@H]1Oc2cc(C#Cc3cccc(F)c3)ccc2S(=O)(=O)N([C@@H](C)CO)C[C@@H]1C
(4) COc1cccc(C#Cc2ccc([C@H]3[C@@H](CO)N4C(=O)CN(C(=O)c5ccncc5)C[C@H]34)cc2)c1
(5) COc1cccc(-c2cnc3c(c2)C(=O)N([C@H](C)CO)C[C@H](C)[C@H](CN(C)Cc2ccccc2)O3)c1
(6) CN(C)C(=O)[C@H]1[C@H](CO)[C@H]2Cn3c(cccc3=O)[C@@H]1N2C(=O)c1ccccc1
(7) COc1ccc(NC(=O)N(C)C[C@H]2Oc3ccc(NC(=O)CCCCCC(=O)Nc4ccccc4N)cc3C(=O)N([C@@H](C)CO)C[C@@H]2C)cc1
(8) Cc1ccc(CN2CC(=O)N3[C@H](CO)[C@@H](c4ccc(Br)cc4)[C@H]3C2)cc1

entry no.	1	2	3	4	5	6	7	8
Vaccinia stage	-3	21	?	?	-1&-4	6	0	28
Vaccinia stage Venus	-6	9	.	.	2&-2	1	0	15

(9) CO[C@@H]1CN(C)C(=O)c2cc(NC(=O)C3CCCC3)ccc2OC[C@@H](C)N(CCC(F)(F)F)C[C@H]1C
(10) CO[C@H]1CN(C)C(=O)c2ccc(NC(C)=O)cc2OC[C@@H](C)N(C(=O)c2ccccc2)C[C@@H]1C
(11) CNC[C@H]1OCCCC[C@@H](C)Oc2ccc(NS(=O)(=O)c3ccccc3)cc2C(=O)N([C@@H](C)CO)C[C@H]1C
(12) O=S(=O)(N[C@@H]1CCCN(Cc2ccc(OCCO)cc2)C1)c1ccccc1
(13) O=C(Cc1ccccc1)N1CC(=O)N2[C@@H](CO)[C@H](c3ccc(-c4cccc(F)c4)cc3)[C@@H]2C1
(14) CCNC(=O)C[C@H]1CC[C@@H]2[C@H](COc3ccc(NC(=O)Nc4ccc(Cl)cc4)cc3C(=O)N2C)O1
(15) C[C@@H]1CN([C@H](C)CO)C(=O)c2cccc(NC(=O)c3ccncc3)c2O[C@H]1CN(C)S(=O)(=O)c1ccccc1
(16) C/C=C/c1ccc2c(c1)O[C@H](CN(C)C(=O)Nc1ccc(C(F)(F)F)cc1)[C@H](C)CN([C@@H](C)CO)S2(=O)=O

entry no.	9	10	11	12	13	14	15	16
Vaccinia stage	-31	3	13	3	12	-11	6	?
Vaccinia stage Venus	-24	0	8	-5	5	-4	9	.

# Pulled by structure from the entries so far (4):
(16) C/C=C/c1ccc2c(c1)O[C@H](CN(C)C(=O)Nc1ccc(C(F)(F)F)cc1)[C@H](C)CN([C@@H](C)CO)S2(=O)=O
(11) CNC[C@H]1OCCCC[C@@H](C)Oc2ccc(NS(=O)(=O)c3ccccc3)cc2C(=O)N([C@@H](C)CO)C[C@H]1C
(12) O=S(=O)(N[C@@H]1CCCN(Cc2ccc(OCCO)cc2)C1)c1ccccc1
(13) O=C(Cc1ccccc1)N1CC(=O)N2[C@@H](CO)[C@H](c3ccc(-c4cccc(F)c4)cc3)[C@@H]2C1

entry no.	16	11	12	13
Vaccinia stage	?	13	3	12
Vaccinia stage Venus	.	8	-5	5

# Additional records follow:
(17) CN1C(=O)c2cc(NC(=O)C3CCOCC3)ccc2OC[C@@H]2O[C@@H](CC(=O)NC3CCCC3)CC[C@H]21
(18) CN(C)C(=O)C[C@H]1C=C[C@@H](NC(=O)Nc2cccc(F)c2)[C@@H](CO)O1
(19) C[C@@H]1CN([C@H](C)CO)C(=O)c2cccc(NS(=O)(=O)c3cccs3)c2O[C@H]1CN(C)S(=O)(=O)c1ccccc1
(20) C[C@H]1CN([C@@H](C)CO)C(=O)Cc2cc(NC(=O)Nc3ccc(C(F)(F)F)cc3)ccc2O[C@@H]1CN(C)C(=O)Nc1ccc(C(F)(F)F)cc1
(21) CC(C)NC(=O)N(C)C[C@@H]1Oc2ccc(NC(=O)Cc3ccccc3)cc2C(=O)N([C@@H](C)CO)C[C@@H]1C
(22) Cc1noc(C)c1NC(=O)Nc1ccc2c(c1)C(=O)N([C@H](C)CO)C[C@@H](C)[C@@H](CN(C)S(=O)(=O)c1cn(C)cn1)OCCCC[C@H](C)O2
(23) CC(C)c1cn(CC[C@H]2CC[C@H](NS(=O)(=O)Cc3ccccc3)[C@H](CO)O2)nn1
(24) C[C@@H]1CN([C@@H](C)CO)C(=O)c2cc(-c3ccc(F)cc3)cnc2O[C@@H]1CN(C)CC1CCOCC1

entry no.	17	18	19	20	21	22	23	24
Vaccinia stage	7	12	0	-16	18	0	6	-9
Vaccinia stage Venus	10	19	-7	-10	7	2	5	-4

(25) O=C(C[C@@H]1C=C[C@@H](NC(=O)C2CC2)[C@@H](CO)O1)NCCc1cscn1
(26) C[C@@H]1CN([C@@H](C)CO)C(=O)c2ccccc2-c2ccccc2CO[C@H]1CN(C)S(=O)(=O)c1cccc(F)c1
(27) COc1ccc(S(=O)(=O)N(C)C[C@H]2Oc3ccc(NS(=O)(=O)c4ccc(Cl)cc4)cc3C(=O)N([C@@H](C)CO)C[C@H]2C)cc1
(28) COc1ccc(S(=O)(=O)N(C)C[C@H]2Oc3c(NC(=O)c4ccncc4)cccc3C(=O)N([C@H](C)CO)C[C@H]2C)cc1
(29) C[C@@H]1CN([C@H](C)CO)C(=O)c2cccc(NC(=O)CCCCCC(=O)Nc3ccccc3N)c2O[C@H]1CN(C)C(=O)Nc1cccc2ccccc12
(30) CN(C)C(=O)c1ccc(-c2ccc([C@H]3[C@@H](C#N)N(C(=O)Cc4ccccn4)[C@H]3CO)cc2)cc1
(31) Cc1noc(C)c1NC(=O)Nc1ccc2c(c1)C(=O)N([C@@H](C)CO)C[C@@H](C)[C@H](CN(C)S(=O)(=O)c1ccc(F)cc1)O2
(32) CN(C)CC(=O)N1CCCCN2[C@H](C1)[C@H](c1ccc(/C=C/c3ccccc3)cc1)[C@@H]2CO

entry no.	25	26	27	28	29	30	31	32
Vaccinia stage	-5	-30	-16	-8	19	3	15	?
Vaccinia stage Venus	-8	-19	-11	-2	20	-9	2	.

(33) C[C@@H]1CN([C@H](C)CO)C(=O)CCCn2cc(nn2)CO[C@@H]1CN(C)S(=O)(=O)c1ccc(Cl)cc1
(34) O=C(C[C@H]1C=C[C@H](NC(=O)Nc2ccc(F)cc2)[C@H](CO)O1)NCCN1CCCC1
(35) CO[C@@H]1CN(C)C(=O)c2ccc(NC(=O)Nc3ccccc3Cl)cc2OC[C@@H](C)N(S(=O)(=O)CC(F)(F)F)C[C@H]1C
(36) CCO[C@H]1OC(C(=O)N2CCN(Cc3ccc4c(c3)OCO4)CC2)=C[C@@H](c2ccc(C(F)(F)F)cc2)[C@@H]1CCCO
(37) C[C@H]1CN([C@@H](C)CO)C(=O)c2cccc(NS(=O)(=O)c3ccc(Cl)cc3)c2O[C@H]1CN(C)Cc1ccncc1
(38) O=C(C[C@H]1CC[C@@H]2[C@H](COC[C@@H](O)CN2Cc2ccccc2)O1)NCCCN1CCOCC1
(39) COc1ccc(S(=O)(=O)N(C)C[C@@H]2OCCCC[C@@H](C)Oc3ccc(NS(=O)(=O)c4cccs4)cc3C(=O)N([C@H](C)CO)C[C@H]2C)cc1
(40) COCC#Cc1ccc([C@@H]2[C@@H](CO)N3C(=O)CN(C(=O)c4ccncc4)C[C@@H]23)cc1

entry no.	33	34	35	36	37	38	39	40
Vaccinia stage	14	6	-25	-34	1	10	?	17
Vaccinia stage Venus	4	11	-5	-23	5	5	.	9

(41) CN(C)CCCC[C@@H]1NC(=O)[C@H]2C[C@@H](C(=O)NCc3ccc(F)cc3)[C@@H](c3ccc(O)cc3)N2C1=O
(42) C[C@@H]1CN([C@H](C)CO)S(=O)(=O)c2ccc(-c3cccnc3)cc2O[C@@H]1CN(C)Cc1ccncc1
(43) O=C(CS)NCCCCCCNC(=O)[C@@H]1C[C@@H]2C(=O)NCC(=O)N2[C@@H]1c1ccc(O)cc1
(44) COc1ccc(CN(C)C[C@@H]2Oc3ccc(NC(=O)Cn4cnnn4)cc3CC(=O)N([C@H](C)CO)C[C@H]2C)cc1
(45) CN1CCN(C(=O)C2=C[C@H](C3CC3)C[C@H](OCCCCO)O2)CC1
(46) O=C(N1CCOCC1)[C@]1(CCS(=O)(=O)c2ccccc2)N=C(c2ccc(OCCCO)cc2)O[C@@H]1c1ccccc1
(47) CC(C)NC(=O)N[C@H]1C=C[C@H](CC(=O)N2CCCCC2)O[C@@H]1CO
(48) COc1ccc(S(=O)(=O)N(C)C[C@H]2Oc3ccc(NC(=O)Cn4cnnn4)cc3C(=O)N([C@@H](C)CO)C[C@H]2C)cc1

entry no.	41	42	43	44	45	46	47	48
Vaccinia stage	28	10	19	12	23	-20	41	12
Vaccinia stage Venus	15	-5	7	4	19	-19	33	8

(49) COC(=O)[C@H]1[C@H](CO)[C@H]2Cn3c(ccc(-c4ccccc4)c3=O)[C@@H]1N2CC1CCCC1
(50) CC(C)CC#Cc1ccc([C@H]2[C@@H](CO)N3C(=O)CN(C(=O)c4cccc(F)c4)C[C@H]23)cc1
(51) C[C@@H]1CN([C@H](C)CO)C(=O)Cc2cc(NC(=O)c3ccncc3)ccc2O[C@H]1CN(C)CC1CCCCC1
(52) CCCC#Cc1ccc([C@@H]2[C@@H](CO)N3CCCCN(S(=O)(=O)CC)C[C@H]23)cc1
(53) Cc1ccc(-c2ccc3c(c2)O[C@@H](CN(C)Cc2ccccn2)[C@H](C)CN([C@H](C)CO)S3(=O)=O)cc1
(54) COC(=O)[C@H]1[C@H](CO)[C@H]2Cn3c(ccc(-c4ccccc4F)c3=O)[C@@H]1N2Cc1ccncc1
(55) Cc1noc(C)c1NC(=O)N(C)C[C@@H]1Oc2ccc(NC(=O)NC(C)C)cc2CC(=O)N([C@H](C)CO)C[C@H]1C
(56) Cn1cnc(S(=O)(=O)N[C@@H]2CC[C@@H](CC(=O)N3CCN(c4ccccc4)CC3)O[C@@H]2CO)c1

entry no.	49	50	51	52	53	54	55	56
Vaccinia stage	-8	?	-12	3	?	8	11	8
Vaccinia stage Venus	-5	.	3	-14	.	1	20	7

(57) C[C@@H]1CN([C@@H](C)CO)C(=O)c2cc(NS(=O)(=O)c3ccccc3)ccc2O[C@@H](C)CCCCO[C@@H]1CN(C)CC1CCCCC1
(58) O=C(C1CCCCC1)N1CC(=O)N2[C@@H](CO)[C@H](c3ccc(Br)cc3)[C@@H]2C1
(59) O=C(Nc1nccs1)[C@@H]1[C@@H](CO)[C@@H]2Cn3c(cccc3=O)[C@H]1N2C(=O)C1CCCC1
(60) O=C(c1cccnc1)N1CC2(C1)[C@@H](c1ccccc1)[C@@H](CO)N2C(=O)CC1CC1
(61) COc1ccc(NC(=O)N(C)C[C@H]2Oc3c(NC(=O)Nc4cccc5ccccc45)cccc3C(=O)N([C@@H](C)CO)C[C@H]2C)cc1
(62) C[C@@H]1CN([C@H](C)CO)S(=O)(=O)c2ccc(C#CC3CCCC3)cc2O[C@H]1CN(C)S(C)(=O)=O
(63) COc1ccc2c3c([nH]c2c1)[C@H](CO)N(Cc1cccnc1)CC31CCN(C(=O)c2cccnc2)CC1
(64) O=C(C[C@H]1C=C[C@@H](NC(=O)NC2CCCC2)[C@@H](CO)O1)NCc1ccc(F)cc1

entry no.	57	58	59	60	61	62	63	64
Vaccinia stage	?	4	6	14	0	-24	17	-6
Vaccinia stage Venus	.	-1	6	12	8	-44	10	1

(65) C[C@@H]1CN([C@H](C)CO)C(=O)c2cccc(NC(=O)NC3CCCCC3)c2O[C@@H]1CN(C)C
(66) O=C(c1ccncc1)N1CC[C@@H]2[C@H](CO)Nc3ccc(-c4ccc(F)cc4)cc3[C@@H]21
(67) CCS(=O)(=O)N1CCC2(CC1)CN(Cc1ccccc1)[C@@H](CO)c1c2c2ccc(OC)cc2n1C
(68) CCC(=O)N1C[C@@H]2[C@H](c3ccccc31)[C@H](CO)N2Cc1ccccc1Cl
(69) COc1ccc(S(=O)(=O)N(C)C[C@H]2Oc3ccc(NC(=O)Nc4ccc(F)cc4)cc3C(=O)N([C@@H](C)CO)C[C@H]2C)cc1
(70) CS(=O)(=O)N1CC2(C1)[C@H](c1ccccc1)[C@H](CO)N2C(=O)c1ccccc1
(71) C[C@H]1CCCCO[C@H](CN(C)C(=O)Nc2ccccc2)[C@@H](C)CN([C@@H](C)CO)C(=O)c2cc(NC(=O)c3ccccc3)ccc2O1
(72) COc1ccccc1-c1ccc2c(c1)O[C@@H](CN(C)C(C)=O)[C@H](C)CN([C@@H](C)CO)S2(=O)=O

entry no.	65	66	67	68	69	70	71	72
Vaccinia stage	-4	-13	-9	3	-28	7	?	3
Vaccinia stage Venus	-3	-3	2	5	-16	10	.	-2

(73) Cc1ccc(S(=O)(=O)N(C)C[C@H]2Oc3c(NC(=O)c4cnccn4)cccc3C(=O)N([C@@H](C)CO)C[C@@H]2C)cc1
(74) CO[C@H]1CN(C)C(=O)c2cc(NS(C)(=O)=O)ccc2OC[C@@H](C)N(C(=O)CN(C)C)C[C@H]1C
(75) CCCNC(=O)N1C[C@H](C)[C@H](OC)CN(C)C(=O)c2ccc(NC(=O)CC)cc2OC[C@@H]1C
(76) O=C(C[C@H]1C=C[C@@H](NS(=O)(=O)c2ccccc2F)[C@H](CO)O1)NCCCN1CCOCC1

entry no.	73	74	75	76
Vaccinia stage	25	0	-8	12
Vaccinia stage Venus	16	-11	-2	10

# Source: PubChem (Broad Institute)
